# CDC25B CDK2 inh: human CDC25B-CDK2/CyclinA binding inhibition; HTRF CDC25B-CDK2/CyclinA binding, anti-His/anti-Flag; active compounds read high; z-score (test concentration not listed); 0.72% of 94,000 active; AID 1259370;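 note: score is relative to mean and SD of negative controls; strong numbers were not always called active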
# TAR Tat displ: HIV-1 TAR-Tat binding disruption | HIV-1 TAR RNA, Tat peptide displacement FRET; active compounds read high | z-score (test concentration not listed) | 0.6% of 100,000 active;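 note: score is relative to mean and SD of negative controls; some compounds called inactive have numbers as strong as hits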
# * hit, by the source's call; / = not tested or not shown.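 Rule for the calls: active = z-score from 3 up in half or more of its runs; inactive = the rest.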 Rows are unselected; 0.89% or so of the library scored in one or more.
SMILES,CDC25B CDK2 inh,TAR Tat displ
Cc1nn(C(C)C(=O)N2CCN(c3ccc(F)cc3)CC2)c(=O)c2c1sc1ccccc12 (stereo not drawn),-2.65,1.25
O=C1COc2ccc(S(=O)(=O)N3CCN(c4ccccc4)CC3)cc2N1,/,1.77
Cc1cc2c(cc1S(=O)(=O)NCc1cccnc1)OCCN2C,/,0.78
COc1cccc(/C=C/c2nc(C#N)c(NCC(C)C)o2)c1,-1.88,-0.46
Cc1cc(=O)[nH]c(Nc2ccccc2F)n1,-2.98,0.64
COc1ccc(Cl)cc1NC(=O)C1CC2CCCN2C12C(=O)N(C)c1ccccc12 (stereo not drawn),/,-0.02
O=c1c(=S)[nH]ccn1-c1ccc2c(c1)OCCO2,-1.8,2.2
Cc1c(S(=O)(=O)c2ccc(Cl)cc2)nnn1-c1cc(F)ccc1F,-0.68,-1.74
O=C(C1CCCN(c2nnc(-n3cccc3)s2)C1)N1CCN(c2cccc(Cl)c2)CC1 (stereo not drawn),/,1.41
O=C(CCS(=O)(=O)c1cccc2nsnc12)Nc1cccc2c1CCCC2,/,2.36
Cc1noc2ncnc(NCCc3ccccc3)c12,/,1.01
c1ccc(-c2nccnc2-c2ccccc2)cc1,-1.73,/
Cc1cc2n(n1)CCC(=O)N2C(C)C(=O)NC(C)C (stereo not drawn),/,-1
CCc1nnc(SCC(=O)Nc2ccc(Br)cc2F)c2cc3occc3n12,/,2.32
Cc1cccc(C)c1NS(=O)(=O)c1ccc2[nH]c3c(c2c1)CCCC3,/,1.59
O=C(Cn1sc2ccccc2c1=O)NCc1ccccc1,-1.81,1.88
CCOC(=O)c1cccc(NS(=O)(=O)c2cc(Cl)ccc2Cl)c1,1.57,/
Cn1c(=O)c(C#N)cc2c(=O)n3ccccc3nc21,0.17,1.94
CCN1C(=O)Cc2cc(NS(=O)(=O)c3ccc(Br)cc3)ccc21,/,0.59
Nc1ccccc1C(=O)c1nccs1,-2.56,1.41

# Part of the list above, with values under each structure.
# Every second line gives: CDC25B CDK2 inh	TAR Tat displ
Cc1noc2ncnc(NCCc3ccccc3)c12
→ /	1.01
CCOC(=O)c1cccc(NS(=O)(=O)c2cc(Cl)ccc2Cl)c1
→ 1.57	/

# Next section.
SMILES,CDC25B CDK2 inh,TAR Tat displ
CC(C)n1c(-c2cccs2)nc2ccccc21,-1.17,1.2
Cc1ccc(SCC(=O)OCc2cc(=O)n3c(C)csc3n2)cc1,/,0.47
O=C1c2oc3ccc(F)cc3c(=O)c2C(c2cccc(O)c2)N1Cc1ccc2c(c1)OCO2 (stereo not drawn),-0.8,0.93
Cc1cc(NCc2ccccc2Cl)n2cnnc2n1,-1.12,0.42
COc1ccc2c3c(cccc13)C(=O)c1ccccc1-2,-0.66,-8.02
CC1(C)Cc2cccc(C(=O)NCC3COc4ccccc4O3)c2O1 (stereo not drawn),0.7,/
N#Cc1nccnc1S(=O)(=O)c1cccs1,-7.14,/
CCOC(=O)c1c(C)oc2nc(C)nc(N(C)c3cc(Cl)c(OC)cc3OC)c12,/,0.69
CSc1nnc(NC(=O)c2nn(-c3cccc(Cl)c3)ccc2=O)s1,-1.41,-0.33
CC1Sc2ccc(S(=O)(=O)CCC(=O)N3CCCc4ccccc43)cc2NC1=O (stereo not drawn),/,0.99
CCn1cnc(C(=O)NC)c1C(=O)NC,-0.58,0.47
CCC(=O)N1CCc2cc(Br)cc(S(=O)(=O)CCC(=O)NC(C)CC)c21 (stereo not drawn),0.66,/
CN1CCN(C(=O)c2ccc3c(c2)N(Cc2ccccc2)CCS3)CC1,-1.13,1.49
Cc1cc2c(cc3c(=O)n(CC(=O)NCCCN4CCCCCC4)ncn32)s1,0.01,/
CC1CC(C)CN(C(=O)C2CCCN(c3nnc(N4CCCC4=O)s3)C2)C1 (stereo not drawn),-2.21,3.03
COc1ccc(OCc2nn3c(C)nnc3s2)cc1,-1.15,1.2
Cc1csc2nc(-c3ccc(NS(=O)(=O)c4cccnc4)cc3)cn12,/,0.43
Cc1nn(-c2ccc(F)cc2)c2[nH]cc(C(=O)O)c(=O)c12,2.22,0.96
Cc1cc(NC(=O)N2CC(C)Sc3ccccc32)ccc1Br (stereo not drawn),/,1.32
COc1ccc(C(=O)c2cnc3ccc(F)cc3c2N2CCOCC2)cc1,-0.2,0.12
COc1ccc(OC)c(CNS(=O)(=O)c2c(C)nc3sc4ccccc4n3c2=O)c1,/,1.56
Cc1nc(C(F)(F)F)ccc1C(=O)NNC(=O)c1cccs1,-0.54,/
O=C(c1cnn(-c2ccccc2)c1-n1cccc1)N1CCC(C(=O)N2CCCCC2)CC1,-0.51,0.63
Cc1ccc(C2CC(c3cccc(NS(C)(=O)=O)c3)=NN2C(=O)c2ccco2)cc1 (stereo not drawn),-2.78,/
COc1cccc(C2Nc3ccc(C(=O)O)cc3C3C4CCC(C4)C23)c1OC (stereo not drawn),-1,2.1
Cn1c(=O)c2c(nc(NCCOc3ccc(F)cc3)n2C)n(C)c1=O,-0.24,/
S=c1[nH]nc(-c2ccc(Cl)cc2Cl)n1N=Cc1cccs1,-1.18,/
CCOc1cc(-c2cc(OC)c3c(C)oc(C)c3c(=O)c2)ccc1O,-1.68,-0.63
FC(F)(F)c1cccc(N=Cc2ccccc2)c1,-1.95,/
O=C(Nc1c(C(=O)Nc2ccccc2)oc2ccccc12)c1cc(=O)c2cc(Cl)ccc2o1,-1.21,0.17
Fc1c(F)c(F)c2c(cnn2-c2ccccc2)c1F,-1.95,/
O=C(O)CCC(=O)Nc1nncs1,-1.37,0.61
CNC(=O)C1=Cc2cc(OC)ccc2OC1,/,0.39
CCCCCCOc1ccc(NS(=O)(=O)c2ccc(F)cc2)cc1,-1.96,1.18
Cc1cc2nc(-c3cc(N)ccc3Cl)oc2cc1C,-0.25,1.87
Cn1cc(CCC(=O)NCCCN2CCOCC2)c2ccccc21,/,1.51
CCN(CC)CCCNC(=O)c1c(O)nc2c(C)cccn2c1=O,-0.58,0.13
CCOC(=O)C(CC)Oc1ccc2c(=O)c(Oc3cc(C)cc(C)c3)coc2c1 (stereo not drawn),-0.41,/
CCOC(=O)c1cn[nH]c1S(=O)(=O)N1CCN(C(=O)c2ccco2)CC1,/,0.28
Cc1ccc2[nH]cc(NC(=O)NC3CC4CCC3C4)c(=O)c2c1 (stereo not drawn),-0.66,0.62
O=C1CCCc2nc(Nc3nc4ccccc4s3)ncc21,-0.9,/
COCCN(Cc1ccco1)C(=O)c1cc2c(s1)-c1ccccc1OC2,-0.51,0.48
COc1ccc(Br)cc1CN1CCC(N2CCCC(C)C2)CC1 (stereo not drawn),-1.85,/
CCCCCSc1nc2ccccc2[nH]1,-0.24,0.83
Cc1ccccc1-c1noc(-c2cccnc2NCc2ccco2)n1,-2.13,-0.12
Cc1nc(Oc2cccc(F)c2)c2c3c(sc2n1)CCCC3,/,0.6
Cc1cccc(NS(=O)(=O)c2c(C)nc3scc(C)n3c2=O)c1C,-0.88,0.23
O=C(NCC1CCCO1)C(=O)NCC(c1ccco1)S(=O)(=O)c1cccs1 (stereo not drawn),/,1.26
Fc1cccc(CSc2nc3ncccc3o2)c1,/,0.8
CCOc1ccc(OCC)c(NS(=O)(=O)c2cn(C)cn2)c1,/,0.92
CCCCn1c(C)c(C)c2c1ncn1nc(Cc3ccccc3)nc21,0.29,1.66
CCCN(CCC)C(=O)C1=C(C)C(=O)OC12CCC(C)CC2 (stereo not drawn),-0.84,-1.08
CC(C)(C)n1[nH]nnc1=S,-2.11,/
Nc1ccc(SCc2nc3ccccc3[nH]c2=O)cc1,/,2.11
Cc1ccc(C(=O)CC2(O)C(=O)N(CCc3ccccc3)c3ccc(Br)cc32)cc1 (stereo not drawn),0.28,/
CCOC(=O)C1=C(C)NC(C)=C(C(=O)OCC)C1C1=COCCO1,-0.78,/
O=C(Nc1ccc(N2CCOCC2)cc1)c1cc2ccccc2c(=O)s1,-1.15,-1.68
CCC(=O)N1CCc2cc(Br)cc(S(=O)(=O)Nc3ccc(Cl)cc3)c21,1.02,/
Cc1ccc(Cn2c(Sc3nnc(C)s3)nc3c2c(=O)[nH]c(=O)n3C)cc1,-1.14,1.52
CCn1nc(C)c(CCNS(=O)(=O)c2c(C)cc(C)cc2C)c1C,-1.86,0.56

# Some of these compounds in order of molecular weight, rising:
SMILES,CDC25B CDK2 inh,TAR Tat displ
Cc1nc(Oc2cccc(F)c2)c2c3c(sc2n1)CCCC3,/,0.6
CSc1nnc(NC(=O)c2nn(-c3cccc(Cl)c3)ccc2=O)s1,-1.41,-0.33
Cc1nn(C(C)C(=O)N2CCN(c3ccc(F)cc3)CC2)c(=O)c2c1sc1ccccc12 (stereo not drawn),-2.65,1.25

# Next part.
SMILES,CDC25B CDK2 inh,TAR Tat displ
COC(=O)c1ccc(C(=O)OC)c(N2C(=O)c3c(C)nc4ccccc4c3C2=O)c1,1.07,15.9
Cc1ccccc1CN1C(=O)N(Cc2ccccc2)S(=O)(=O)c2ccccc21,/,2.17
O=C(NCCN1CCOCC1)C1CC(c2ccc(F)cc2)=NO1 (stereo not drawn),-1.9,-0.66
CC(=O)OC(C)C[N+](C)(C)C (stereo not drawn),-2.33,-0.7
CCn1nc(C)c(CCN(C)S(=O)(=O)c2cccc3nsnc23)c1C,/,1.83
COc1cc(C(=O)Nc2ccc(S(=O)(=O)NC(C)=O)cc2)cc(OC)c1OC,-2.73,/
Cc1nn2c(NCCN3CCOCC3)cc(C(C)(C)C)nc2c1-c1ccc(F)cc1,-1.12,0.74
Cc1cc2c3c([nH]c2cc1S(=O)(=O)N1CCN(c2ccccn2)CC1)CC(C)(C)CC3=O,/,2.88
Cc1nc2ncnn2c(Nc2cccc(F)c2)c1C,/,0.6
Cc1csc2nc(-c3cccc(NS(=O)(=O)c4ccc5c(c4)OCCO5)c3)cn12,/,0.75
COc1ccc(S(=O)(=O)n2nc(C)c(S(=O)(=O)N3CCC(C)CC3)c2C)cc1C,/,0.3
COc1ccccc1-c1cc(C(=O)Nc2cccnc2Cl)no1,-1.71,/
Cc1nnsc1-c1n[nH]c(C)c1C(=O)N/N=C/c1c(Cl)cccc1Cl,-1.16,/
CSc1nnc2c(n1)OC(/C=C/c1cccs1)Nc1ccccc1-2 (stereo not drawn),-1.84,0.36
O=C(O)c1ccccc1C(=O)Nc1n[nH]c(=S)s1,-1.88,/
COc1ccc(S(=O)(=O)N2CCC(NC(=O)N3CCCC3)CC2)cc1,-0.04,1.99
O=C(Cc1noc2ccccc12)NC1CCCC1,-0.64,1.2
CCOC(=O)Cc1csc(NC(=O)NC2CC(=O)N(c3ccc4c(c3)OCCO4)C2)n1 (stereo not drawn),/,1.48
O=C(Cn1ncc2c3ccccc3n(Cc3ccc(F)cc3)c2c1=O)NC1CCCC1,-1.19,0.58
CC(C)(C)NC(=O)[C@@H]1C[C@@H]2CCCC[C@@H]2CN1C(=O)COc1ccc(Cl)cc1Cl,-0.23,/

# Single records (already shown).
# Cc1nnsc1-c1n[nH]c(C)c1C(=O)N/N=C/c1c(Cl)cccc1Cl as listed: CDC25B CDK2 inh: -1.16; TAR Tat displ: /
# Cc1csc2nc(-c3cccc(NS(=O)(=O)c4ccc5c(c4)OCCO5)c3)cn12 as listed: CDC25B CDK2 inh: /; TAR Tat displ: 0.75

# Going on with the list:
SMILES,CDC25B CDK2 inh,TAR Tat displ
O=C(C1CCN(S(=O)(=O)c2ccc(F)cc2)CC1)N(Cc1ccccc1)Cc1ccccc1,-0.47,/
O=C(O)c1cc(Cl)ccc1NS(=O)(=O)c1cccc2nsnc12,-0.29,/
CC(C)C(=O)Nc1c(C(=O)N2CCN(c3ccccc3)CC2)oc2ccccc12,/,1.11
COc1ccc(N(CC(=O)Nc2cccc(OC)c2)C2=NC3CS(=O)(=O)CC3S2)cc1 (stereo not drawn),-3.82,0.79
CCc1ccc(Nc2nnc(C(C)(C)C)c(=O)[nH]2)cc1,2.8,/
Cc1cc(C)c(CN2CCCN(Cc3cc(C)ccc3C)S2(=O)=O)c(C)c1,/,-0.87
O=c1c(NC2CC2)c(-c2ccc3c(c2)CCCC3)c1=O,/,-2.19
COc1ccc(OS(=O)(=O)CS(C)(=O)=O)cc1,-1.23,/
Cc1csc2nc(COC(=O)c3ccccc3Br)cc(=O)n12,/,0.34
COc1ccc2c(c1)NC(c1cccnc1)=NC(c1ccc(F)cc1)=N2,-2.07,0.07
O=C1NC(=Nc2ccccc2Br)SC1(CO)CO,0.03,2.07
COc1cc2c(cc1OC)CN(C(=O)CSc1nnc3ccccn13)CC2,-1.02,2.57
O=S(=O)(c1ccc2[nH]c3c(c2c1)CCCCC3)N1CCN(Cc2ccccc2)CC1,/,0.93
NC(=O)CCCc1nc(-c2ccc(Cl)cc2)no1,-2,1.13
O=C(O)COc1ccc(N2C(=O)CCC2=O)cc1,1.34,/
CC1(C)Cc2c(sc3nc(SCC(=O)c4ccccc4)[nH]c(=O)c23)CO1,-1.36,-0.56
CCCCOC(=O)C1=C(C)NC2=C(C(=O)CC(C)(C)C2)C1c1ccc(N(C)C)cc1 (stereo not drawn),11.1,-1.28
Cc1ccc(Cn2c(CO)cnc2SCc2ccccc2)cc1,/,1.35
O=C(c1cc(-c2ccc(F)cc2)no1)N1CCCC1c1ccc(F)cc1 (stereo not drawn),2.08,0.21
CC(C)=CCC(C#N)(CC=C(C)C)C(=O)O,-0.94,/
CCC(=O)OCCNc1cc(N2CCCC2)c2noc3c2c1C(=O)c1ccccc1-3,-1.85,0.21
COc1ccc(Cl)cc1NS(=O)(=O)c1c(C)[nH]c(=O)[nH]c1=O,/,1.28

# Reformatted: results already given
> O=C1NC(=Nc2ccccc2Br)SC1(CO)CO
  CDC25B CDK2 inh: 0.03; TAR Tat displ: 2.07
> CCN1C(=O)Cc2cc(NS(=O)(=O)c3ccc(Br)cc3)ccc21
  CDC25B CDK2 inh: /; TAR Tat displ: 0.59

# High-throughput results deposited in PubChem by Center for Chemical Genomics, University of Michigan.
